# HttQ103 aggreg = inhibitors of mutant huntingtin aggregate formation in PC12 cells. PC12 HttQ103-GFP aggregates, Acumen cytometry, 40 h. Potency, µM (doses to about 46.1 µM), for the others: at the highest dose activity change, negative = inhibition, usual class: inhibitors. 220,000 compounds, 1.1% hits. AID 1688; note: % is set by controls: 0 for no effect and ±100 for the full control effect; nearly all actives have a fitted effect of over 60% in size
#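 Huntingtin Q103 exon 1–GFP aggregates in induced PC12 cells (100 nM tebufenozide) were quantified by cytometry from lysates, with compounds dosed in titration.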
# SMN2 splice up = SMN2 splice variant enhancement; AID 1458; Potency, µM (highest dose often 46.1 µM), inactives show at the highest dose activity change, positive = activation, actives largely listed as activators; HEK293 SMN2-luciferase splicing reporter, luminescence, 30-36 h; 210,000 compounds, 2.8% hits; note: % of control where 0% means no effect; nearly all actives have a fitted effect of over 55% in size
#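 qHTS luciferase splicing reporter: luminescence rises when SMN2 exon 7 is included in transfected HEK293 cells. Compound exposure lasted 30-36 h at 37C, with 4.5 mM final sodium butyrate as control, followed by a ONE-Glo read.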
# HTT ATP protect = cytoprotection in Huntington HTT-Q103 PC12 cell model; PC12 HTT-Q103 induced, cytoprotection, ATP luminescence, 40 h; Potency, µM (top dose mostly 56.4 µM), for inactives: cytoprotection (ATP increase), usual class: activators; 230,000 compounds, 0.14% hits;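 note: % of control where 0% means no effect; nearly all actives have a fitted effect of over 45% in size; toxic huntingtin expression switched on by the ecdysone agonist tebufenozide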
#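 Rat PC12, Q103 Htt exon1-GFP fusion, ecdysone promoter; tebufenozide inducer 100 nM final; compound titration; qHTS, 1500 cells/well; ATPlite luminescent read.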
# ALDH1A1 block = inhibitors of human aldehyde dehydrogenase 1A1; Purified ALDH1A1, NADH fluorescence, propionaldehyde substrate; P00352; 220,000 compounds, 7.3% hits; Potency, µM (highest dose often 75.3 µM), for inactives: at the top dose activity, negative = inhibition, actives largely listed as inhibitors; active = well fitted inhibition curve with a large enough effect, not every such curve was filed as active; inconclusive = small, poorly fitted or top-dose-only effect, or another doubt; inactive = no such curve, though single readings can be large or run the other way;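 note: plate controls were no enzyme wells and a reference inhibitor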
# Target sequence (P00352 whole entry, looked up): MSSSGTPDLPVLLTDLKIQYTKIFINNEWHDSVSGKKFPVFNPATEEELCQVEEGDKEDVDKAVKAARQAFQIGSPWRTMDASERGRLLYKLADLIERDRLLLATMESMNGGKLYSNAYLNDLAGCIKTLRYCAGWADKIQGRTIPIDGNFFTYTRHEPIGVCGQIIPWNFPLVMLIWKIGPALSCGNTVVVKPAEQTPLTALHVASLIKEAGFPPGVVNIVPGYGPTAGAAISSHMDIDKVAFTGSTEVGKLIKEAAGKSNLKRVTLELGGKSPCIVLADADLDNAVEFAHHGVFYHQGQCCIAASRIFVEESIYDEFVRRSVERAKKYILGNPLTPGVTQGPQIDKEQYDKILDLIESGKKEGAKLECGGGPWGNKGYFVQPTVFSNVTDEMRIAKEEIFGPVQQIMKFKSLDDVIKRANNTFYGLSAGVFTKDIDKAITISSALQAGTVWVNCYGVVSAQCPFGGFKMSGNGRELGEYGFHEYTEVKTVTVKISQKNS
# Tau fluor counter = counter-screen for tau fibril formation inhibitors; tau K18 P301L Alexa594 fluorescence, heparin fibrillization; Potency, µM (highest dose often 57.7 µM), for the others: top-dose activity change, negative = decrease; 280,000 compounds, 0.93% hits; AID 1463; note: % is set by controls: 0 for no effect and ±100 for the full control effect; nearly all actives have a fitted effect of over 55% in size
#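 Human K18 P301L tau (15 uM unlabeled plus 0.24 uM Alexa 594-labeled, final) in 100 mM sodium acetate pH 7 was mixed with compound and 20 uM heparin and incubated 6 hr at 37 C.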
# Tau fibril ThT = tau fibrillization inhibition (ThT binding) | P10636 | recombinant tau K18 P301L, heparin-induced fibrillization, ThT fluorescence | Potency, µM (top dose mostly 57.4 µM), without a hit: top-dose activity, negative = inhibition, hits mostly inhibitors | 270,000 compounds, 2.1% hits | AID 1460; note: % is set by controls: 0 for no effect and ±100 for the full control effect; nearly all actives have a fitted effect of over 55% in size
# Target sequence (P10636 561-689 P618L limits assumed): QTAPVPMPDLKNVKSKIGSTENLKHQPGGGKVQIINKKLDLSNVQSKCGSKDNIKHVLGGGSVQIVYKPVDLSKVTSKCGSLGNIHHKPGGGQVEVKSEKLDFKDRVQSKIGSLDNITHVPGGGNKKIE
#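 Using a mix of unlabeled (15 uM) and Alexa 594-labeled (0.24 uM) tau K18 P301L, heparin-triggered fibrillization over 6 hr at 37 C was scored by ThT fluorescence.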
# Tau FP inhib = tau fibrillization inhibition (FP). P10636. K18 P301L tau heparin fibrillization, Alexa594 FP, 6 h. Potency, µM (highest dose often 57.7 µM), for inactives: at the top dose activity, negative = inhibition, usual class: inhibitors. 280,000 compounds, 0.39% hits. AID 1468; note: % is set by controls: 0 for no effect and ±100 for the full control effect; nearly all actives have a fitted effect of over 55% in size
#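 Recombinant K18 P301L […], labeled with Alexa 594 at 0.24 uM over 15 uM unlabeled; heparin inducer 20 uM final; 37 C, 6 hr; FP endpoint.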
# * hit, by the source's call; ? = inconclusive; · = not tested or not shown; & = joins results of further samples; [ ] = remark or other dose. Unless noted, calls come from the whole dose curve; as a rule, active = well fitted curve in the direction sought with a large enough effect; inconclusive = small, poorly fitted or top-dose-only effect, or another doubt; inactive = no such curve, though single readings can be large; an effect the other way counts as inactive or inconclusive. Potency is the fitted concentration of half-maximal effect. The list is partial (hit frequency here may not be typical).
1: CC(=O)c1sc(N/N=C/c2ccc(C(C)C)cc2)nc1C
2: CCOC(=O)C1=C(CNCCOc2ccc(OC)cc2)NC(=O)NC1c1ccc2c(c1)OCO2 (configuration not stated)
3: Cc1cc(NC(=O)CSc2ncnc3c2cnn3-c2ccccc2)no1
4: CCOC(=O)C1CCCN(CC(=O)Nc2cccc(C(C)=O)c2)C1 (configuration not stated)
5: c1ccc2c(c1)CCCN2Cc1nnc2n1CCCCC2
6: CSCC[C@@H](C(=O)O)N1Cc2ccccc2C1=O
7: COC(=O)CCN(C(=O)C12CC3CC(CC(C3)C1)C2)c1ccccn1
8: CCc1cccc(OCCCCNCCCOC)c1
9: CC(C)CNC1=CC(=O)CC(c2ccco2)C1 (configuration not stated)
10: COc1ccc2[nH]cc(CC(N)C(=O)O)c2c1 (configuration not stated)
assay / compound | 1 | 2 | 3 | 4 | 5 | 6 | 7 | 8 | 9 | 10
HTT ATP protect | -84%[inhibitor] | -95%[inhibitor] | -25% | -1% | -1% | -5% | 3% | -3%[10 µM] | 4% | -23%
ALDH1A1 block | ? | 0% | 0% | 10µM* | 0% | -15% | -2% | ? | 14µM* | 11%
Tau fibril ThT | ? | -13% | -14% | -2% | -9% | -1% | -1% | 1% | 28µM* | ?
SMN2 splice up | 18µM* | -19% | -16% | -7% | -3% | -6% | -14% | 14% | 0% | -13%
Tau fluor counter | ? | -9% | -3% | 0% | -1% | 2% | 1% | 4% | -21% | -27%&-14%
HttQ103 aggreg | -13% | ? | -12% | -4% | ? | -2% | 7% | -1% | 16% | ·
Tau FP inhib | ? | 7% | -4% | 7% | 8% | 2% | -6% | 0% | ? | -12%&-7%

# 10 successive compounds out of the list so far:
1: CC(=O)c1sc(N/N=C/c2ccc(C(C)C)cc2)nc1C
2: CCOC(=O)C1=C(CNCCOc2ccc(OC)cc2)NC(=O)NC1c1ccc2c(c1)OCO2 (configuration not stated)
3: Cc1cc(NC(=O)CSc2ncnc3c2cnn3-c2ccccc2)no1
4: CCOC(=O)C1CCCN(CC(=O)Nc2cccc(C(C)=O)c2)C1 (configuration not stated)
5: c1ccc2c(c1)CCCN2Cc1nnc2n1CCCCC2
6: CSCC[C@@H](C(=O)O)N1Cc2ccccc2C1=O
7: COC(=O)CCN(C(=O)C12CC3CC(CC(C3)C1)C2)c1ccccn1
8: CCc1cccc(OCCCCNCCCOC)c1
9: CC(C)CNC1=CC(=O)CC(c2ccco2)C1 (configuration not stated)
10: COc1ccc2[nH]cc(CC(N)C(=O)O)c2c1 (configuration not stated)
assay / compound | 1 | 2 | 3 | 4 | 5 | 6 | 7 | 8 | 9 | 10
HTT ATP protect | -84%[inhibitor] | -95%[inhibitor] | -25% | -1% | -1% | -5% | 3% | -3%[10 µM] | 4% | -23%
ALDH1A1 block | ? | 0% | 0% | 10µM* | 0% | -15% | -2% | ? | 14µM* | 11%
Tau fibril ThT | ? | -13% | -14% | -2% | -9% | -1% | -1% | 1% | 28µM* | ?
SMN2 splice up | 18µM* | -19% | -16% | -7% | -3% | -6% | -14% | 14% | 0% | -13%
Tau fluor counter | ? | -9% | -3% | 0% | -1% | 2% | 1% | 4% | -21% | -27%&-14%
HttQ103 aggreg | -13% | ? | -12% | -4% | ? | -2% | 7% | -1% | 16% | ·
Tau FP inhib | ? | 7% | -4% | 7% | 8% | 2% | -6% | 0% | ? | -12%&-7%

# Next records follow.
11: O=C(Nc1ccc2c(c1)OCO2)N1CCN(Cc2ccco2)CC1
12: COc1ccc(-c2cc(C(F)(F)F)nc(NCc3ccco3)n2)cc1OC
13: Cc1nn(-c2ccc(Cl)cc2)c2[nH]c(=O)c(CNCc3ccc4c(c3)OCO4)cc12
14: CCOc1ccccc1CNc1nc2nc3c(c(=O)n2[nH]1)CCC3
15: C=CCNC(=O)c1onc(CCl)c1C(=O)OC
16: Cc1ccc(C(C)C)c(OCCN(C)C)c1
17: CN1C(=S)N(c2ccccc2)C(=O)/C1=C/c1ccco1
18: C[C@H](NC(=O)c1nc[nH]c1C(=O)N1CCN(c2ccccc2)CC1)C(=O)OC(C)(C)C
19: CC1=CC(C)(C)N(C(=O)CNC2CCCC2)c2cc(C)ccc21
20: CC1=C(/C=C/C(C)=N\NC(=O)c2ccncc2)C(C)(C)CCC1
assay / compound | 11 | 12 | 13 | 14 | 15 | 16 | 17 | 18 | 19 | 20
HTT ATP protect | -93%[inhibitor][10 µM] | -19% | -10%[0.074 µM] | 23% | -57%[inhibitor] | 7% | 17%[0.074 µM] | 13%[10 µM] | · | -8%[10 µM]
ALDH1A1 block | ? | ? | ? | 3% | -8% | ? | 13µM* | · | ? | ?
Tau fibril ThT | -11% | -8% | -11% | -1% | 0% | -2% | -16% | -5% | -5% | -4%
SMN2 splice up | · | -4% | -26% | 20% | 2% | -14% | -14% | · | -15% | ·
Tau fluor counter | -3% | -16% | -11% | 6% | -4% | 1% | -5% | 2% | 0% | 2%
HttQ103 aggreg | 2%[9.22 µM] | -25% | -16% | 8% | -6% | -5% | 3% | -32%[9.22 µM] | · | -8%[9.22 µM]
Tau FP inhib | -2% | -13% | ? | -1% | -3% | -2% | -4% | 6% | -1% | 2%

21: CC(CCc1ccccc1)N1CCN(Cc2ccccc2)CC1 (configuration not stated)
22: CC(C)(C)CN1CCNC(=O)C1CC(=O)NCCN1CCCc2ccccc21 (configuration not stated)
23: c1cncc(C2Nc3ccccc3-c3nc4ccccc4n32)c1 (configuration not stated)
24: COC(=O)c1c(C)oc2ccc(N(C(=O)c3ccncc3)S(=O)(=O)c3ccc4ccccc4c3)cc12
25: O=C(NC1(C(F)(F)F)C(=O)Nc2c1c(=O)[nH]c(=O)n2-c1ccccc1)c1cccnc1 (configuration not stated)
26: Cc1[nH]c(=O)[nH]c(=O)c1S(=O)(=O)NCCOC12CC3CC(CC(C3)C1)C2
27: O=C(CN1C(=O)/C(=C\c2ccccc2Cl)Oc2ccccc21)NCc1cccnc1
28: O=C(c1ccc2c(c1)OCO2)N1CCN=C1SCc1ccccc1
29: COc1ccc(CCN(C)CC(O)c2ccccc2)cc1OC (configuration not stated)
30: CC(C)(C)c1cc(CSC(=S)NC2CCS(=O)(=O)C2)c(Br)c(C(C)(C)C)c1 (configuration not stated)
assay / compound | 21 | 22 | 23 | 24 | 25 | 26 | 27 | 28 | 29 | 30
HTT ATP protect | · | -10%[10 µM] | -14% | 11%[10 µM] | -4% | 3% | -22% | 5% | -38%[inhibitor] | -34%[10 µM]
ALDH1A1 block | -3% | ? | ? | 3% | 3% | 4% | 4µM* | 11µM* | 18µM* | -9%
Tau fibril ThT | -7% | ? | -15% | -14% | -8% | 5% | 6% | 5% | -6% | -10%
SMN2 splice up | 10% | · | -29% | -68%[inhibitor] | 21% | ? | -2% | -20% | -14% | -9%
Tau fluor counter | -9% | -8% | -10% | -11% | 0% | 4% | -2% | -8% | -9% | -22%
HttQ103 aggreg | 18% | -13%[9.22 µM] | -23% | ? | 5% | -2% | 0% | 1% | -8% | ?
Tau FP inhib | 0% | ? | 9% | 13% | 9% | 5% | 3% | -1% | -3% | ?

31: COC(=O)CSc1ncc(C#N)c(N)n1
32: COC(=O)c1ccccc1NC(=O)COc1ccc(S(=O)(=O)N2CCCC2)cc1C
33: COc1nc(OC)nc(N2CCC(C(=O)NC3CCCCCC3)CC2)n1
34: O=C1c2ccncc2C(=O)N1Cc1cccc(Cl)c1
35: O=C(CSc1ncn(-c2ccccc2)n1)Nc1nccs1
36: O=C(Nc1nnc(-c2ccc3c(c2)CCCC3)o1)c1ccccc1Cl
37: C=CCN(CC=C)CCCOc1ccc(C)cc1OC
38: O=C(NCc1ccc2c(c1)OCO2)c1cccc(N2CCCC2=O)c1
39: CNC(=O)CSc1nnc(-c2ccc(S(=O)(=O)N3CCCC3)cc2)n1-c1cccc(C)c1C
40: CCCC(=O)Nc1nn(CCC)c2nc3ccccc3cc12
assay / compound | 31 | 32 | 33 | 34 | 35 | 36 | 37 | 38 | 39 | 40
HTT ATP protect | 1% | 5% | -5% | -18% | 15% | -31% | -14% | 27% | -6%[10 µM] | -1%
ALDH1A1 block | -5% | ? | 3% | 1% | 16% | 1% | ? | 1% | -10% | -13%
Tau fibril ThT | -2% | 2% | -3% | 6% | -6% | ? | -5% | -16% | 3% | -5%
SMN2 splice up | 6% | -4% | -27% | -17% | -3% | 16% | -1% | -15% | -10% | -5%
Tau fluor counter | 5% | 0% | -3% | -4% | -8% | -17% | -9% | -10% | 4% | -6%
HttQ103 aggreg | 6% | -8% | 0% | 9% | -14% | 11µM* | -9% | -10%[9.22 µM] | 7% | -24%
Tau FP inhib | 6% | -1% | 3% | -5% | -4% | 9% | -1% | 0% | -2% | -2%

41: Cc1cc(NN)nc(NS(=O)(=O)c2ccc(Cl)cc2)n1
42: CCc1ccccc1NC(=O)CSC1=C(C#N)C(c2ccc3c(c2)OCO3)C2=C(CCCC2=O)N1 (configuration not stated)
43: CCc1ccc(N2C(=O)c3sc4nnc(C)c(=O)n4c3C2=O)cc1
44: COc1cccc(Cn2cccc(NC(=O)Nc3cccc(C#N)c3)c2=O)c1
45: Cc1cc2ccccc2n2c(SCC(=O)Nc3ccc(S(=O)(=O)N4CCC(C)CC4)cc3)nnc12
46: COc1cccc(C(c2nnnn2Cc2ccco2)N2CCN(Cc3ccccc3)CC2)c1OC (configuration not stated)
47: COc1ccc(C2C(C(=O)/C=C/c3ccco3)=C(O)C(=O)N2CCN2CCOCC2)cc1 (configuration not stated)
48: COc1ccc(S(=O)(=O)N2CCCCCC2)cc1N
49: CCC(=O)NC(=S)NNC(=O)c1ccccc1[N+](=O)[O-]
50: CC1CN(CCOc2ccc([N+](=O)[O-])cc2)CC(C)O1 (configuration not stated)
51: CCN1CCN(C(=S)NCCOC)CC1
52: CCn1c(COc2cccc(C)c2)nnc1SCC(=O)Nc1cccc(C(=O)O)c1
53: O=C(C1CCN(Cc2ccccc2)CC1)N1CCN(C/C=C/c2ccccc2)CC1
assay / compound | 41 | 42 | 43 | 44 | 45 | 46 | 47 | 48 | 49 | 50 | 51 | 52 | 53
HTT ATP protect | 7%[10 µM] | 5% | 0% | -5%[10 µM] | -16%[1.9 µM] | 12%[10 µM] | -44%[inhibitor] | 8% | -18% | · | · | -4% | 1%[10 µM]
ALDH1A1 block | 8% | 25µM* | 5µM* | · | ? | ? | 20µM* | 5% | 10µM* | ? | -12% | -1% | -10%
Tau fibril ThT | -5% | -17% | ? | · | 0% | -7% | ? | 4% | ? | -10% | -9% | -5% | 8%
SMN2 splice up | 4% | 22% | 28% | · | -25% | -13% | -4% | 5% | -6% | -9% | 8% | · | ?
Tau fluor counter | -7% | ? | -10% | ? | -29% | -3% | -12% | 4% | -1% | -5% | -1% | 1% | 9%
HttQ103 aggreg | -17% | -6% | -1% | -17%[9.22 µM] | -14% | 7%[9.22 µM] | 13% | 13% | -25% | 17% | · | -9% | 10%
Tau FP inhib | ? | -4% | 1% | ? | ? | -1% | ? | 1% | -7% | 2% | 2% | -5% | 6%
